Screening results from PubChem BioAssay.
Rango complex inh: qHTS Assay for Inhibitors of Rango (Ran-regulated importin-beta cargo) - Importin beta complex formation; 340,000 compounds, 0.031% hits; Rango CFP/YFP FRET sensor + importin beta, 45 min; Potency, µM (doses to about 92.2 µM), inactives show top-dose inhibition of complex formation; active = rising FRET ratio curve, often small or poorly fitted; inconclusive = mostly compound fluorescence or quenching in the first reads; inactive = flat curves in all reads;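 also: potency is read from the fitted curve at half-maximal effect; 0% = DMSO wells and 100% = buffer wells lacking importin beta; nearly all actives have a fitted effect of over 15% in size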
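FRET biosensor Rango (snurportin 1 IBB between N-terminal EYFP and C-terminal Cerulean), 50 nM in PBS/1 mM DTT/0.02% Tween-20/0.1% BSA, preincubated 5 min RT with compound; 0.125 microM importin beta added, 45 min RT, CFP/YFP FRET ratio read.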
GLA inh pH 4.5: qHTS Assay for Inhibitors of Human alpha-Galactosidase at pH 4.5. Alpha-galactosidase A (Homo sapiens), P06280. purified enzyme, 4-MU-alpha-Gal fluorescence, pH 4.5. activity change, negative = inhibition, % at 105 µM. 230,000 tested, under 10 active. AID 1467, 2008; inconclusive = small, poorly fitted or top-dose-only inhibition, or a rising curve; inactive = flat fitted curve, though single readings scatter; no compound was filed as active;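 also: 0% = full activity with enzyme and -100% = basal without enzyme; dose as in the result columns while the protocol names 77 µM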
Target sequence (P06280 whole entry, looked up): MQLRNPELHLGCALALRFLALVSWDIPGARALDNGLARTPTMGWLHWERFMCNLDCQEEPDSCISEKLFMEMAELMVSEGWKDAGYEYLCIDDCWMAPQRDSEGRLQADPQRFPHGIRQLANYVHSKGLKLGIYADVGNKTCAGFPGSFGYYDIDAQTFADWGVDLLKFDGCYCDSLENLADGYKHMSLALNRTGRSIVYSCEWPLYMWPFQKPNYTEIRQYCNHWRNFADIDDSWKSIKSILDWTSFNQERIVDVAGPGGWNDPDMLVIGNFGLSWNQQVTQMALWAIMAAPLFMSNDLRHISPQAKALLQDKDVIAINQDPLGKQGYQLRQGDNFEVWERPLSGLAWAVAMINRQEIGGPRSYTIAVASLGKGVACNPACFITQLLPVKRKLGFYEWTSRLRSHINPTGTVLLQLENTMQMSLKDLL
miR-21 reporter: qHTS Assay for Modulators of miRNAs and/orActivators of miR-21. HeLa miR-21 FLuc reporter, luciferase, 48 h. Potency, µM (series often up to 38.3 µM), inactives show at the top dose reporter change, positive = more light. 340,000 tested, under 10 active. AID 2288, 2010; active = well fitted rising curve with a large enough effect; inconclusive = small, poorly fitted or top-dose-only effect; inactive = no such curve, though single readings can be large or run the other way;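 also: % of control where 0% means no effect; miR-21 action dims this reporter so a rising signal means less miR-21 action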
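Using DMEM plus 10% FBS, HeLa miR-21-FLuc cells are incubated with test compounds (final up to about 40uM) for 48 hours; firefly luciferase signal is then imaged following reagent-mediated lysis.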
Rango dissoc inh: qHTS Assay for Inhibitors of RanGTP induced Rango (Ran-regulated importin-beta cargo) - Importin beta complex dissociation. Biochemical FRET Rango-importin beta, RanGTP-induced dissociation. 340,000 compounds, 0.071% hits. Potency, µM (highest dose often 46.1 µM), for inactives: top-dose activity change, negative = inhibition. AID 540253, 2011. Snurportin-1 (Homo sapiens) + GTP-binding nuclear protein Ran (Homo sapiens) + Importin …; active means falling FRET ratio curve, often poorly fitted, with flat reads before Ran was added; inconclusive means other falling curves, or compound fluorescence or quenching; inactive means flat or rising ratio curve;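 also: potency is read from the fitted curve at half-maximal effect; % of control where 0% means no effect; nearly all actives have a fitted effect of over 45% in size; -100% = wells without RanGTP and RCC1; the record marks most hits as doubtful in a second field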
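Compounds preincubate 5 min with complex of recombinant Rango and importin beta in PBS with 1 mM DTT. Ran (0.6 uM) loaded with 2 mM GTP plus 0.2 uM RCC1 starts dissociation; FRET is recorded 45 min later.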
Numbers without * were called inactive; u = inconclusive; x = not tested or not shown. This is a subset; count on the stated rates, not on these rows.

SMILES	Rango complex inh	GLA inh pH 4.5	miR-21 reporter	Rango dissoc inh
Cc1ccc(O)c(C(=O)c2cnc3c(c2)c(C)nn3C)c1	-0.5%	x	-6.3%	-16.1%
COc1ccc(-n2nnnc2SCC(=O)N2C(C)CCCC2C)c(OC)c1 (stereo not given)	-2.9%	2.6	-2.5%	-14.7%
C=CCn1c(SCC(=O)Nc2cc(C)on2)nc2c([nH]c3ccccc32)c1=O	u	x	5.0%	-15.1%
O=C(NC1CCCCC1)C(c1ccco1)N(Cc1ccco1)C(=O)c1ccco1 (stereo not given)	u	3.9	-0.5%	0.9%
Cc1ccc2c(Cl)c(C(=O)Nc3ccc4c(c3)OCO4)sc2c1	4.7%	-4.4	-52.4%	2.2%
CCOc1ccc(N2C(=O)CC(Cc3ccccc3OC)C2=O)cc1 (stereo not given)	-2.7%	x	-3.8%	5.2%
CCCCCC#CCN1CCN(C23CC4CC(CC(C4)C2)C3)CC1	-3.6%	x	x	0.2%
CC(C)(c1ccccc1)c1ccc(OCCn2cnc3ccccc3c2=O)cc1	2.9%	-1.6	-2.4%	17.4%
Cc1c(Cl)cccc1Nc1nc(N)nc(CSC(=S)N2CCOCC2)n1	-0.4%	2.5	-45.9%	-3.8%
CC(Sc1ccccc1)C(=O)NCC(c1ccco1)N1CCCCC1 (stereo not given)	3.1%	x	x	-16.3%
CC(=O)Nc1cc2c(cc1C(=O)c1ccc(C)cc1)OCCO2	-5.4%	11.5	-5.9%	2.8%
O=C([O-])c1cc(-c2ccccc2)cc(-c2ccccc2)[n+]1CCc1ccc(Cl)cc1	-4.0%	x	x	-6.0%
Cn1cnnc1Sc1ccc(CN2CCN(C3CCCC3)C(CCO)C2)o1 (stereo not given)	-0.7%	-2.3	0.0%	2.0%
O=C(O)COc1cccc2nsnc12	3.9%	3.5	-0.4%	-23.0%
O=C(O)COc1ccccc1/C=N/NC(=O)CN1CCN(Cc2ccc(Cl)cc2)CC1	-0.9%	1.4	-1.9%	-2.6%
CC1(C)NC(=O)N(CCCCOc2ccc3c(c2)CCC3)C1=O	-1.5%	-2.8	-24.9%	3.6%
COc1ccccc1N(CC(O)Cn1c2ccccc2c2ccccc21)S(=O)(=O)c1ccccc1 (stereo not given)	-0.9%	-6.2	u	5.2%
Cc1occc1-c1nnc(SCC(=O)NCc2ccco2)n1CC(C)C	-1.7%	-0.3	0.8%	1.2%
COc1ccc(C=NNC(=O)c2ccccc2OCc2ccc(F)cc2)c(OC)c1	0.6%	x	x	-6.9%
CCCCn1cnc2sc(-c3ccccc3)cc2c1=O	0.0%	2.6	-69.6%	8.6%
COc1ccc(OCc2csc(N)n2)cc1	1.6%	-2.0	-31.2%	4.9%
COc1ccccc1NC(=O)CN1CCN(CC(=O)Nc2ccc(S(N)(=O)=O)cc2)CC1	0.7%	x	7.0%	10.6%
S=C(NCCc1ccccc1)N/N=C/c1c(Cl)cccc1Cl	7.6%	3.4	-6.1%	13.7%
COc1ccc(CCNC(=O)CN2C(=O)NC3(CCOc4ccccc43)C2=O)cc1 (stereo not given)	1.3%	x	x	5.6%
O=C(NNc1c2ccccc2nc2ccccc12)c1ccccc1Cl	0.5%	x	-3.7%	0.8%
SMILES	Rango complex inh	GLA inh pH 4.5	miR-21 reporter	Rango dissoc inh
COC(=O)c1ccc2c(=O)n3c(nc2c1)SCC(c1ccccc1)=N3	0.3%	-3.7	-20.4%	-2.3%
Cn1nc(-c2ccccc2F)c2cc(C(=O)N3CCN(C(=O)c4ccco4)CC3)sc21	-0.4%	x	x	4.0%
N/C(=N\OC(=O)c1cccs1)c1ccc(Cl)cc1	-0.3%	-2.7	-59.2%	-8.0%
O=C1[C@@H](Oc2ccccc2)[C@@H](c2ccncc2)N1c1ccncc1	-3.6%	x	x	16.0%
CCCc1cc(=O)[nH]c(SCC(=O)c2cc(C)n(CC(F)(F)F)c2C)n1	-0.3%	-4.2	-7.2%	3.5%
CC(=O)Nc1ccc(Nc2nnc(-c3ccc(C)c(S(=O)(=O)NCCO)c3)c3ccccc23)cc1	0.6%	x	-6.4%	1.4%
Nc1ccc(Br)c2c1C(=O)c1ccccc1C2=O	0.0%	-0.8	-16.2%	1.9%
N#CSCC(=O)c1cccc2ccccc12	4.9%	3.1	16.8%	18.3%
Cc1ccc(NC(=O)CSCC(=O)N2CCN(Cc3ccc4c(c3)OCO4)CC2)cc1	-0.9%	x	-0.4%	7.8%
Cn1cc(CC(=O)NCCN2CCOCC2)c2ccccc21	-4.6%	-1.8	-0.6%	-17.3%
O=C(NC(=O)N1CCN(C(c2ccccc2)c2ccccc2)CC1)c1ccccc1	-3.2%	8.0	3.4%	14.3%
C/C(=N/NC(=O)c1ccccn1)c1ccco1	2.1%	0.1	0.3%	12.5%
COc1ccc(CNCC(O)(c2ccccc2)c2ccccc2)cc1OC	-1.7%	-4.6	14.5%	-1.6%
C=CCn1c(SCn2nnc3ccccc3c2=O)nnc1C1CCCCC1	1.0%	3.0	1.6%	9.6%
O=C(CN1CCN(Cc2ccc(F)cc2Cl)C1=O)NCCc1ccccc1	-0.8%	0.2	-24.0%	4.0%
CNC(=S)N1N=C(c2ccccc2)CC1c1ccccc1Cl (stereo not given)	-2.9%	4.7	0.3%	-2.0%
N#Cc1ccccc1OCC(=O)Nc1ccc(S(=O)(=O)N2CCOCC2)cc1	0.1%	x	x	-4.7%
COc1ccc2nc3cc(Cl)ccc3c(C#N)c2c1	u	4.1	-7.2%	u
OCCC1CN(Cc2ccccn2)CCN1C1CCCC1 (stereo not given)	0.6%	-20.6	-4.6%	-8.6%
CN(CC(=O)Nc1ccc(OC(F)(F)F)cc1)C(=O)c1ccccc1SCC(=O)N1CCCC1	-0.4%	x	x	1.2%
Cc1ccc(N(C(=O)c2ccc(S(=O)(=O)N3CCOCC3)cc2)C2C=CS(=O)(=O)C2)cc1 (stereo not given)	0.2%	2.7	-5.7%	-10.2%
O=C(CN1CCN(C(=O)c2ccccc2)CC1)Nc1cc(S(=O)(=O)N2CCCC2)ccc1Cl	11.9%	x	x	-16.3%
COc1ccc2sc(-c3ccc(S(C)(=O)=O)cc3)c(-c3ccc(C(N)=O)cc3)c2c1	u	x	x	-7.5%
CCc1ccc(-c2cc(C)no2)cc1S(=O)(=O)N1CCCN(Cc2ccc(F)cc2)C1	-0.2%	x	0.1%	19.3%
COC(=O)c1ccc(CN(c2ccccc2Cl)S(C)(=O)=O)cc1	1.0%	-5.1	0.7%	6.3%
SMILES	Rango complex inh	GLA inh pH 4.5	miR-21 reporter	Rango dissoc inh
CCCCOc1ccc(N=Cc2ccc[nH]2)cc1	5.3%	x	-3.0%	-12.8%
Cc1ccc2cc(CN(c3ccccc3)S(=O)(=O)c3ccccc3)c(=O)[nH]c2c1	-3.9%	-17.7	-6.4%	-13.2%
Cc1nc2sc(C(c3cccs3)N3CCN(Cc4ccccc4)CC3)c(O)n2n1 (stereo not given)	0.1%	11.6	-2.0%	6.9%
COc1ccc(Cc2n[nH]c(=S)o2)cc1	4.7%	-9.6	-2.6%	-0.2%
O=c1[nH]c(CSc2nnc(-c3ccccc3)n2-c2ccccc2)nc2ccccc12	u	-12.4	-15.5%	20.7%
Cc1ccccc1-c1cc(C(=O)NCC2CC2)n(CC2CC(c3cccnc3)=NO2)n1 (stereo not given)	2.1%	x	x	12.2%
Cc1ccc(C)c(NC(=O)C(Sc2nnc(-c3cccs3)o2)c2ccccc2)c1 (stereo not given)	1.0%	-5.7	-20.4%	2.9%
CCCCC(=O)NC(c1ccco1)c1cc(Cl)c2cccnc2c1O (stereo not given)	u	-2.2	2.5%	12.2%
N/C(=N\O)C1COc2ccccc2O1 (stereo not given)	1.1%	1.0	-2.5%	-6.4%
Cc1c(C2Nc3ccccc3C(=O)N2O)cnn1C (stereo not given)	-2.2%	-4.3	-30.4%	-13.2%
O=C(O)CCNC(=O)c1ccc(NC(=O)C(c2ccccc2)c2ccccc2)cc1	0.9%	x	-4.1%	0.1%
Nc1ncnc2nc(SCCC(=O)O)[nH]c12	0.1%	5.8	0.7%	-3.7%
O=C(CN1C(=O)S/C(=C\c2cc(Cl)c(O)c(Cl)c2)C1=O)Nc1ccccc1	u	x	0.7%	u
COCc1[nH][nH]c(=O)c1C=Nc1ccccc1	0.1%	0.2	-1.0%	-2.2%
Cc1ccc(C)c(Nc2c(F)c(F)c(F)c(F)c2C(=O)O)c1	-2.9%	0.5	6.5%	-3.1%
COC(=O)c1cccc(NC(=O)c2ccc3c(c2)C(=O)N(Cc2cccnc2)C3=O)c1C	3.1%	x	1.2%	3.9%
O=C(NC1=NCCS1)c1csc2ccccc12	-3.4%	-6.0	-41.8%	16.0%
COc1ccccc1NC(=O)c1c[nH]c2ccccc12	-1.0%	x	-42.1%	19.3%
CC(=O)Oc1oc(-c2ccccc2)nc1/C=N/c1ccccn1	-0.8%	-4.9	-43.0%	-1.2%
Fc1cccc(Cl)c1/C=N/Nc1ccccn1	5.2%	4.0	-17.8%	0.7%
CCCc1c(C(=O)N/N=C/c2ccc(C)s2)nnn1-c1nonc1N	3.0%	x	-4.0%	6.6%
Cc1ccc(C(=O)OCC(=O)Nc2ccccc2)cc1S(=O)(=O)N1CCCCC1	0.3%	x	x	-0.1%
O=C(COC(=O)CNS(=O)(=O)c1ccc(Br)cc1Cl)NC1CC1	-1.6%	x	x	1.1%
CCCCCn1c(CNC(=O)CC)nc2ccccc21	-3.9%	6.0	-2.6%	12.0%
O=C1/C(=C/c2ccc(F)cc2)SC(=S)N1CCCC(=O)N1CCCCC1CCO (stereo not given)	-1.1%	x	u	-1.5%

Reformatted in CSV form: part of the list above.
mol,Rango complex inh,GLA inh pH 4.5,miR-21 reporter,Rango dissoc inh
COC(=O)c1ccc(CN(c2ccccc2Cl)S(C)(=O)=O)cc1,1.0%,-5.1,0.7%,6.3%
CCCCOc1ccc(N=Cc2ccc[nH]2)cc1,5.3%,x,-3.0%,-12.8%

(next part)
SMILES	Rango complex inh	GLA inh pH 4.5	miR-21 reporter	Rango dissoc inh
CCN(CC)/C(Sc1ccccc1)=C(/C(Cl)=C(Cl)Cl)[N+](=O)[O-]	-1.2%	-25.2	4.1%	-10.8%
O=C(NCCc1nnc2ccc(N3CCCCCC3)nn12)c1ccccc1	0.7%	x	-0.3%	20.2%
CCCCOC(=O)c1ccc(OC(=O)c2cccnc2)cc1	1.5%	-1.3	-46.6%	0.0%
Clc1cccc(NCc2nnc(SCc3ccccc3)o2)c1	-1.5%	0.7	-27.7%	16.1%
O=C(CNS(=O)(=O)c1cccs1)NCCc1ccc(Cl)cc1	-1.2%	x	0.0%	-6.3%
O=C(CCCc1ccccc1)NCc1ccc(Cl)cc1	2.9%	x	-0.5%	17.8%
Cc1cccc([C@@H]2[C@@H]3C(=O)N(Cc4ccccc4)C(=O)[C@@H]3[C@]3(Cc4ccccc4)C(=O)N(c4ccc(C(F)(F)F)cc4)C(=O)N23)c1	-0.7%	x	x	-5.6%
COCC1CCN(C(=O)c2cc(COc3ccc(-n4cncn4)cc3)on2)CC1	7.1%	x	0.3%	-4.8%
Clc1ccc(OCCCn2ccnc2)c(Br)c1	-2.5%	11.8	-27.9%	-7.8%
CC(=O)N[C@@H](C)C(=O)OC(C)C(=O)Nc1cccc([N+](=O)[O-])c1 (stereo not given in full)	0.8%	4.2	0.6%	u
FC(F)(F)c1ccccc1NC(=S)Nc1cccc(Cl)c1	-1.7%	5.5	1.6%	4.7%
O=C1c2ccccc2C(=O)N1c1cc([N+](=O)[O-])ccn1	-1.1%	x	-10.1%	15.1%
COc1cc2c(cc1OC)CN(C(=O)COc1ccc(C)c(C)c1)CC2	0.7%	u	-0.2%	-10.1%
S=C1NCCOCCNC(=S)NCCOCCOCCN1	-2.2%	6.5	-2.5%	17.5%
O=[N+]([O-])c1ccc(CNC2CCCc3ccccc32)cc1 (stereo not given)	2.9%	-12.1	-14.5%	-6.3%
CCC(C)N1CCN(S(=O)(=O)Cc2ccccc2)CC1 (stereo not given)	0.6%	x	0.6%	21.4%
O=C(COC(=O)c1ccccc1F)NC(=O)NC1CCCC1	0.7%	x	x	-5.4%
